Mtb growth: M. tuberculosis H37Rv growth inhibitors, H37Rv strain (AID 1626); M. tuberculosis H37Rv growth inhibition; higher % means a stronger effect; 0.95% of 220,000 active; inhibition, % at 10 µM; hits with a dose series show IC50 in µM;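 active = confirmed in a dose series; inconclusive = inhibition above 80% but not taken into the dose series; inactive = below 80% or under 30% at every dose of the series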;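 also: bacteria incubated seven days before Alamar blue readout; 0% = bacteria only wells and 100% = bacteria with antibiotic wells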
Arbovirus inh: arbovirus infection inhibition. AID 1251. 0.37% of 200,000 active. inhibition, % at 10 µM. arbovirus infection cell-based antiviral screen;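 active = inhibition from about 30%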;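 also: bluetongue infection of BSR cells; cell survival read as ATP light after 72 h; 0% = infected wells without compound and 100% = uninfected wells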
Mtb betalactam: beta-lactam sensitization of Mtb H37Rv; M. tuberculosis H37Rv growth with meropenem, percent inhibition; hits of this screen are not shown here; inhibition, % at 25 µM; 0.27% of 330,000 active;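 active = about 74% or more and at least 40 points above the plate without the antibiotic, then above 30% in a dose series; inconclusive = first-round hits that could not be retested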;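 also: growth measured after seven days incubation then overnight dye step; 0% = bacteria only wells and 100% = bacteria with antibiotic; twin plates without the antibiotic show which effects depend on it; some results filed as inactive read as strong as hits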
YopH PTP inh: inhibitors of Yersinia enterocolitica YopH tyrosine phosphatase; fluorescence Ex485/Em525; inhibition, %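 (about 10 µM by stock and volumes)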; 0.16% of 140,000 active;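 active = inhibition of 50% or more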;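 also: controls were vehicle for no effect and minimum signal wells for full effect; inactives centre near -20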
RecA intein inh: inhibitors of M. tuberculosis RecA intein splicing; 0.75% of 290,000 active; AID 2221; inhibition, %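 (about 9 µM by stock and volumes)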; P9WHJ3; cell-free RecA intein splicing, fluorescence; in the data active = inhibition above about 30%; inconclusive = no clear call, values can overlap the other calls;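 also: 0% = vehicle wells and 100% = reference inhibitor control wells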
Target sequence (P9WHJ3 whole entry, looked up): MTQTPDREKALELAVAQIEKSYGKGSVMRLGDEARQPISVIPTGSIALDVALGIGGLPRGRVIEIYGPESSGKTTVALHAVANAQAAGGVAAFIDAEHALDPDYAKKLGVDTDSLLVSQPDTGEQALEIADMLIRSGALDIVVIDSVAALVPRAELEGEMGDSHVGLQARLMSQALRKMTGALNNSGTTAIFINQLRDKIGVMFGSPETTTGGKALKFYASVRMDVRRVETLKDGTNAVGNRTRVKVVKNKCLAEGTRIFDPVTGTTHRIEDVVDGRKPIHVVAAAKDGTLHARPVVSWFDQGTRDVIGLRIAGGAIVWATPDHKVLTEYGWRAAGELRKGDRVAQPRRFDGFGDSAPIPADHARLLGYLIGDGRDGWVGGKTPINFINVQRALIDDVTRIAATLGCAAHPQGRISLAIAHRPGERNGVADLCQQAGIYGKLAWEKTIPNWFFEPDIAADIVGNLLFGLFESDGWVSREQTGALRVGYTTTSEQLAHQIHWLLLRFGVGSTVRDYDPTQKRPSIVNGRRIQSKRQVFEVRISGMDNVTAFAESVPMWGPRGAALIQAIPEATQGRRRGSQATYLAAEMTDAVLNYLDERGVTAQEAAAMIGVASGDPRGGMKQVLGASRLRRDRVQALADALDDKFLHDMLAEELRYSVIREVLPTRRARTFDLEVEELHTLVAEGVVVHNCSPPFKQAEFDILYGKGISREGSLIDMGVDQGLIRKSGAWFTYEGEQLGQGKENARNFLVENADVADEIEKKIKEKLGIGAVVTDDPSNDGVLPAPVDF
An asterisk follows results filed as active; i = inactive; ? = inconclusive; · = no result given. The list is partial. The share of hits here may be higher or lower than overall.

Results follow in this order: Mtb growth, Arbovirus inh, Mtb betalactam, YopH PTP inh, RecA intein inh
> CC(=O)NC1C(=O)SC1(C)C (centres undefined)
→ 7%, 2, 3, -50, -0.5
> Cc1nnc(SCc2ccc(CSc3nnc(C)c(=O)[nH]3)cc2)[nH]c1=O
→ -6%, 9, 0, ·, 5.7
> CC(=O)c1csc(-c2cccc(-c3nc4ccc(Cl)cn4c3NC3CCCCC3)c2)c1
→ ·, ·, 9, ·, 6.0
> O=[N+]([O-])c1[nH]cnc1/C=C/c1ccccc1
→ -1%, ·, -4, ·, -2.0
> CCNc1nc(NCc2ccccc2)nc(Oc2ccc(=O)[nH]n2)n1
→ -1%, -1, -6, -5, ·
> CC(=O)N(C1=C(N2CCOCC2)C(=O)c2ccccc2C1=O)c1ccc(C(=O)O)cc1
→ -1%, ·, 23, ·, 61*
> CCOC(=O)c1nc(Nc2cc(Cl)ccc2OC)c2ccccc2n1
→ ·, ·, 11, ·, -4.5
> COc1ccc(-c2cn3cccnc3n2)cc1
→ 2%, -5, -4, ·, -6.1
> Cc1onc(-c2c(F)cccc2Cl)c1C(=O)NC(=S)NC1CCS(=O)(=O)C1 (centres undefined)
→ -1%, 4, 0, -27, 1.8
> O=C(NCCCNc1ccc([N+](=O)[O-])cc1)C(F)(F)F
→ 2%, 1, 5, -29, 2.9
> COc1ccc2c(C)nc(N/C(N)=N/S(=O)(=O)c3ccc(C)cc3)nc2c1
→ 1%, 10, -2, ·, 1.3
> CNC(=O)C(C)N1c2cccc3cccc(c23)S1(=O)=O (centres undefined)
→ ·, ·, 0, ·, -1.0
> O=c1[nH]n(CCO)c(=O)c2cccnc12
→ -3%, ·, 9, ·, -2.3
> O=[N+]([O-])c1ccc(N/N=C2/CCCCC2c2ccccn2)cc1 (centres undefined)
→ -7%, -10, ·, 12, 3.9
> c1ccc2c(c1)C(=Nn1cnnc1)c1ccccc1-2
→ -2%, 5, 3, -25, 1.0
> O=C(N/N=C/c1ccc2c(c1)OCO2)c1ccn(Cc2ccc(Cl)cc2)n1
→ ·, ·, 4, ·, -1.3
> CCCCN1C(=O)C(=O)N(CC(=O)Nc2cc(S(=O)(=O)N(C)C)ccc2C)C1=O
→ ·, ·, -4, ·, -0.3
> Cc1ccc(CNC(=O)c2cc(S(=O)(=O)N3CCCC3)cn2C)cc1
→ ·, ·, -3, ·, 0.6
> COc1ccc(N2CC(NC(=O)c3cccc4ccccc34)CC2=O)cc1OC (centres undefined)
→ ·, ·, 2, ·, -1.1
> O=C1CCN(CCc2ccccc2)CCN1[C@H](CSc1ccc(Br)cc1)Cc1ccccc1
→ 46%, ·, 91, ·, 8.0
> Cc1cccc(C(=O)n2c(=S)nc3ccccn32)c1
→ -2%, -3, -1, -3, 0.3
> Cc1c(NC(=S)NC(=O)CSc2ccc(Cl)cc2)cccc1C(=O)O
→ ·, ·, ?, ·, 1.8
> N/C(=N\S(=O)(=O)c1cc(C(F)(F)F)cc(C(F)(F)F)c1)c1ccncc1
→ ·, ·, -1, ·, -1.6
> CCOC(=O)C1(CCOc2ccccc2)CCN(Cc2ccc(C(=O)OC)cc2)CC1
→ ·, ·, 5, ·, 5.2
> CN(C)CCOC(=O)CCc1ccccc1
→ -4%, 11, -13, -10, 0.0
> O=C(O)CCn1cc(/C=C2\NC(=S)N(c3ccccc3)C2=O)c(-c2ccc(Br)cc2)n1
→ 1%, 14, -3, ·, 2.7
> CC(C)n1c(SCC(=O)Nc2nncs2)nnc1C1CC1
→ ·, ·, -8, ·, -193
> CCCCNC(=O)CN1C(=O)c2cccc(N)c2C1=O
→ -7%, 8, ·, ·, i
> c1ccc(C2CC(c3ccccc3)n3ncnc3N2)cc1 (centres undefined)
→ 13%, 2, 2, 7, -3.0
> O=C(NCc1cccnc1)[C@@H]1CC=C[C@@H]2CCN(Cc3ccccc3)C(=O)[C@@H]21
→ 0%, ·, -11, ·, 2.0
> COc1ccc2c(c1)cc(C)c1nnc(SCC(=O)N(C)c3nc(-c4ccccc4)cs3)n12
→ -5%, 4, 9, -12, 0.7
> COc1cccc(-n2c(=O)c3sccc3n(CC(=O)NCC3CCCO3)c2=O)c1 (centres undefined)
→ ·, ·, ?, ·, -0.7
> CCN(CC)C(=S)Nc1ccc(Cl)c(Cl)c1
→ 23%, 12, 2, -18, 0.9
> CS(=O)(=O)N(CC(=O)N1CCN(c2ccccc2)CC1)c1ccccc1Cl
→ -3%, ·, 2, -7, -2.3
> O=[N+]([O-])c1ccc(N2CCN(c3cccc(Cl)c3)CC2)cn1
→ ·, ·, 6, ·, -2.6
> O=C(NC(=S)Nc1ccccn1)c1ccc([N+](=O)[O-])cc1
→ -7%, -2, 14, -19, 0.2
> C=CCn1c(CNc2ccc(C)cc2)nnc1SCC(=O)N/N=C/c1ccc(O)cc1O
→ -6%, -25, 1, -18, 5.1
> CC(=O)N1CCC2(CC1)CC(=O)c1cc(OCC(=O)NCc3ccco3)ccc1O2
→ -2%, 1, -8, -11, -7.3
> NC(=O)CCN1CCCCC1
→ -7%, 5, -1, ·, ·
> COc1ccc(C(=O)/C=C/c2ccccc2F)c(OC(=O)c2ccc([N+](=O)[O-])cc2)c1
→ 14%, -40, 94, -10, 10
> CCOC(=O)[C@@H]1[C@H]2COc3cc(OC)ccc3[C@H]2N2C(=O)N(c3ccc(C)cc3)C(=O)[C@@]12C
→ ·, ·, 95, ·, 4.7
> CCN1CCN(CCNC(=O)CCc2c(C)c3c(C)nn(-c4ccccc4)c3n(C)c2=O)CC1
→ ·, ·, -3, ·, 1.4
> O=c1cc(CSc2ccc(Cl)cc2)nc(N2CCCCC2)[nH]1
→ -2%, -11, -8, -24, ·
> CCOc1ccc2ncc(S(=O)(=O)c3ccccc3)c(N3CCN(c4ccc(OC)cc4)CC3)c2c1
→ 12%, 10, 0, -16, 2.0
> COC(=O)C1SCC2C(=O)N(Cc3ccccc3)CC(=O)N21 (centres undefined)
→ 4%, 10, 0, ·, -0.9
> COc1ccc2[nH]c3c(c2c1)CCNC3=O
→ -6%, ·, -3, ·, -1.8
> COC(=O)c1ccccc1CON1C(=O)C(C)(C)N(OCc2ccccc2C(=O)OC)C(=O)C1(C)C
→ 4%, 11, -8, -9, 3.4
> O=C(CSc1ccccc1)Nc1nnc(COc2ccc(Cl)cc2)s1
→ 4%, 12, 4, 18, 1.3
> CCCN1CCC(=O)N([C@H](CSc2ccc(Br)cc2)c2ccccc2)CC1
→ 14%, ·, 35, ·, 0.0
> CS(=O)(=O)N(CC(=O)NCc1ccco1)c1ccc2c(c1)OCO2
→ 2%, 8, 3, 13, -2.3
> O=C(Cn1nnc(-c2ccc3c(c2)OCO3)n1)NCc1ccccc1
→ -3%, -11, -2, ·, 12
> CCN(CC)S(=O)(=O)c1ccc(N=Nc2c(C)[nH]n(C(N)=S)c2=O)cc1
→ -3%, 0, 55, 3, 2.4
> Cc1nnc(NC(=O)CCCN2C(=O)c3ccccc3C2=O)s1
→ -7%, -1, 0, -46, 5.9
> CCCn1c(C)cc(C(=O)COc2ccc(S(=O)(=O)N(CC)CC)cc2[N+](=O)[O-])c1C
→ -4%, -5, -14, -48, -0.1
> C=CCNC(=O)/C(=C\c1ccc([N+](=O)[O-])cc1)NC(C)=O
→ -5%, 11, 2, -21, -15
> CCOC(=O)c1[nH]c(C=O)c(C(=O)OCC)c1C
→ -6%, -2, 1, ·, -2.1
> CCOc1ccc(S(=O)(=O)n2nc(C)cc2C)c2ccccc12
→ -10%, 1, 7, -45, 1.8
> Cc1ccc(O)c(NC(=O)c2cc(C)no2)c1
→ ·, ·, -1, ·, -6.1
> Cc1ccc(Oc2nccc(-c3ccc(Cl)cc3)n2)cc1
→ 18%, 3, -3, -23, 5.2
> CCNC(=O)CC1C(=O)N(c2ccccc2)C(=O)N1CCC(C)C (centres undefined)
→ -6%, 2, -12, -17, 0.7

Profiles from above.
`CCCn1c(C)cc(C(=O)COc2ccc(S(=O)(=O)N(CC)CC)cc2[N+](=O)[O-])c1C` is listed as Mtb growth: -4%; Arbovirus inh: -5; Mtb betalactam: -14; YopH PTP inh: -48; RecA intein inh: -0.1
`CCCN1CCC(=O)N([C@H](CSc2ccc(Br)cc2)c2ccccc2)CC1` is listed as Mtb growth: 14%; Arbovirus inh: ·; Mtb betalactam: 35; YopH PTP inh: ·; RecA intein inh: 0.0

In a second layout: results already given
structure	Mtb growth	Arbovirus inh	Mtb betalactam	YopH PTP inh	RecA intein inh
CCN1CCN(CCNC(=O)CCc2c(C)c3c(C)nn(-c4ccccc4)c3n(C)c2=O)CC1	·	·	-3	·	1.4
O=c1cc(CSc2ccc(Cl)cc2)nc(N2CCCCC2)[nH]1	-2%	-11	-8	-24	·
CCOc1ccc2ncc(S(=O)(=O)c3ccccc3)c(N3CCN(c4ccc(OC)cc4)CC3)c2c1	12%	10	0	-16	2.0
COC(=O)C1SCC2C(=O)N(Cc3ccccc3)CC(=O)N21 (centres undefined)	4%	10	0	·	-0.9
COc1ccc2[nH]c3c(c2c1)CCNC3=O	-6%	·	-3	·	-1.8
COC(=O)c1ccccc1CON1C(=O)C(C)(C)N(OCc2ccccc2C(=O)OC)C(=O)C1(C)C	4%	11	-8	-9	3.4
O=C(CSc1ccccc1)Nc1nnc(COc2ccc(Cl)cc2)s1	4%	12	4	18	1.3
CCCN1CCC(=O)N([C@H](CSc2ccc(Br)cc2)c2ccccc2)CC1	14%	·	35	·	0.0
CS(=O)(=O)N(CC(=O)NCc1ccco1)c1ccc2c(c1)OCO2	2%	8	3	13	-2.3
O=C(Cn1nnc(-c2ccc3c(c2)OCO3)n1)NCc1ccccc1	-3%	-11	-2	·	12
CCN(CC)S(=O)(=O)c1ccc(N=Nc2c(C)[nH]n(C(N)=S)c2=O)cc1	-3%	0	55	3	2.4
Cc1nnc(NC(=O)CCCN2C(=O)c3ccccc3C2=O)s1	-7%	-1	0	-46	5.9
CCCn1c(C)cc(C(=O)COc2ccc(S(=O)(=O)N(CC)CC)cc2[N+](=O)[O-])c1C	-4%	-5	-14	-48	-0.1
C=CCNC(=O)/C(=C\c1ccc([N+](=O)[O-])cc1)NC(C)=O	-5%	11	2	-21	-15
CCOC(=O)c1[nH]c(C=O)c(C(=O)OCC)c1C	-6%	-2	1	·	-2.1
CCOc1ccc(S(=O)(=O)n2nc(C)cc2C)c2ccccc12	-10%	1	7	-45	1.8
Cc1ccc(O)c(NC(=O)c2cc(C)no2)c1	·	·	-1	·	-6.1
Cc1ccc(Oc2nccc(-c3ccc(Cl)cc3)n2)cc1	18%	3	-3	-23	5.2
CCNC(=O)CC1C(=O)N(c2ccccc2)C(=O)N1CCC(C)C (centres undefined)	-6%	2	-12	-17	0.7

More records.
Results follow in this order: Mtb growth, Arbovirus inh, Mtb betalactam, YopH PTP inh, RecA intein inh
> CC(C)C(=O)Nc1cccc(C(=O)Nc2nncs2)c1
→ -14%, 1, -8, -47, ·
> S=C1NC2(CCCCCC2)N=C1c1ccccc1
→ -3%, 2, 8, ·, 1.0
> Cc1cc(=O)[nH]c(N/N=C/c2cn(CCC#N)nc2-c2ccccc2)n1
→ 9%, 5, -7, ·, -1.7
> O=C(Nc1nccs1)c1ccc([N+](=O)[O-])cc1
→ 17%, ·, -3, ·, -0.5
> C=CCNC(=O)CSc1nnc(-c2ccc(S(=O)(=O)N3CCCC3)cc2)n1C
→ ·, ·, 7, ·, 0.8
> CC(=O)c1cc2c(cc1NC(=O)CCCC(=O)O)OCO2
→ -6%, 6, -16, -33, -4.2
> O=C(COc1ccccc1[N+](=O)[O-])N(C1CCCCC1)C1CCS(=O)(=O)C1 (centres undefined)
→ ·, ·, 2, ·, -0.3
> CCC(=O)OCCn1c(Br)nc2c1c(=O)[nH]c(=O)n2C
→ 4%, -1, 4, -2, -1.4
> O=S(=O)(c1ccc(SCCO)nc1)N1CCCC1
→ 2%, -1, 1, -58, 1.8
> CCOc1ccc(NC(=O)CN(C)C(=O)C2CC(=O)N(c3ccc4c(c3)OCCO4)C2)cc1OCC (centres undefined)
→ ·, ·, 1, ·, -2.7
> O=C(Nc1cccc(NC(=O)c2ccco2)c1)c1ccc([N+](=O)[O-])cc1
→ 3%, -5, -2, ·, 0.2
> O=C(c1cc2ncc(CCCl)cn2n1)N1CCCCCC1
→ 2%, 4, -1, -43, 1.4
> Cc1ccc(N=c2c([N+](=O)[O-])nn(-c3ccc4c(c3)OCCO4)n2O)cc1F
→ 6%, -4, -1, ·, 0.6
> CNC(=S)N1CCN(c2nc(-c3ccc(F)cc3)cs2)CC1
→ ·, ·, 4, ·, -0.9
> Cn1c(NCc2c(O)ccc3ccccc23)nc2ccccc21
→ 7%, 26, 12, 3, -1.4
> CC(CCc1ccccc1)NC(=O)COC(=O)c1cccc(N(C)C)c1 (centres undefined)
→ ·, ·, -1, ·, 5.2
> CCNC(=O)/C(=C\c1ccc2c(c1)OCO2)NC(=O)c1ccc(Br)cc1
→ 2%, -1, ·, -36, -0.6
> Cc1oc(-c2ccc(Cl)cc2)nc1CS(=O)CC(=O)NC(C)c1ccccc1 (centres undefined)
→ ·, ·, 8, ·, -1.4
> CN(C)c1ccc(NC(=O)C2C3C=CC(C3)C2C(=O)O)cc1 (centres undefined)
→ ·, ·, 5, ·, 0.0

Screening data (PubChem BioAssay)
